LANA-H2A inh = blocks KSHV LANA binding to histone H2A/H2B; Q9QR71; cell-free LANA-H2A/H2B peptide, fluorescence polarization; inhibition, % (no concentration beside the values); 320,000 compounds, 0.6% hits; AID 2629; in the data active means inhibition mostly above about 10%, no sharp cut-off; inactive means mostly below about 6.7%;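 further: stock transfer was 7.5 nL into about 10 µL; 0% = median of vehicle wells and 100% = median of positive control wells; one replicate is shown; the record names a cut of 25% in any replicate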
Target sequence (Q9QR71 whole entry, looked up): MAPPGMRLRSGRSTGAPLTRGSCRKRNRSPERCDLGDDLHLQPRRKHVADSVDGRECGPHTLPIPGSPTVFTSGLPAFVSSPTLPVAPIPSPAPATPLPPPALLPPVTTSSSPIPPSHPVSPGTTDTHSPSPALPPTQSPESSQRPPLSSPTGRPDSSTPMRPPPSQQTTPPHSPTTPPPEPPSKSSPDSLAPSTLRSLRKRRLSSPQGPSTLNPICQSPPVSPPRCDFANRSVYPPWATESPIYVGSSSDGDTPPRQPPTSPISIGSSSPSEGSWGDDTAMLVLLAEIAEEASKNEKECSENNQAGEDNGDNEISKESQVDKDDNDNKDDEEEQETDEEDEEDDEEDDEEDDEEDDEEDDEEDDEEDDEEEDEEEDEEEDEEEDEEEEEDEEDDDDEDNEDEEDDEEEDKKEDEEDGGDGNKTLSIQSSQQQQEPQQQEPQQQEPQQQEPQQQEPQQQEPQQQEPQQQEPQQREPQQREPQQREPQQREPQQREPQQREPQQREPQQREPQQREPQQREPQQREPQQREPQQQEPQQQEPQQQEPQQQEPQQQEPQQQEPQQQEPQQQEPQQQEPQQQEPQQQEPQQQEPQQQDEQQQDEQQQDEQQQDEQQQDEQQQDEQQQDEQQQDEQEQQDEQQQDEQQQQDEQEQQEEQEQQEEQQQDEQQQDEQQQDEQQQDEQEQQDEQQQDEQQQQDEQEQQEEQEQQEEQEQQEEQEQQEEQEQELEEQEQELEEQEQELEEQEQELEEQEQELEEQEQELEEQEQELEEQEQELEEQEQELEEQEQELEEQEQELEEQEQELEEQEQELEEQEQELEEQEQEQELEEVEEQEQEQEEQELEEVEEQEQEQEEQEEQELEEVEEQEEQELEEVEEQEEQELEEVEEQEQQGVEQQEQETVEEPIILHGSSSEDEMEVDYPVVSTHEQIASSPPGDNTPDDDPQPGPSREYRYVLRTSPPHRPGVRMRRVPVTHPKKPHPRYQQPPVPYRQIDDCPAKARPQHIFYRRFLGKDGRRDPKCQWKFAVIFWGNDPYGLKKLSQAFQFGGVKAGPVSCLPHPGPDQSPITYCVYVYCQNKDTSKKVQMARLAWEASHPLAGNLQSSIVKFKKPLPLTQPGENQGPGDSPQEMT
B2AR ag = activates human beta-2 adrenergic receptor causing internalization; P07550; Am2.2-beta2AR cells, FAP receptor internalization, flow cytometry; reference of the scale not given here; response, % (test concentration not listed); 340,000 compounds, 0.43% hits;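 active means response above a set limit, near 3 SD of response in nonfluorescent compounds, cut at about 42% in these data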;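 further: stock transfer was 100 nL into about 11 µL; a reference agonist was the positive control; negative values mostly stem from fluorescent compounds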
rRNA inh HTS = inhibits bacterial ribosomal RNA function over humanized ribosomes; E. coli WT GFP vs humanized-ribosome RFP mutants, fluorescence, 24 h; active compounds read low; DMSO median 0, no signal -100; GFP signal change (wild-type ribosome), % (test concentration not listed); 350,000 compounds, 1.6% hits; AID 720706;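 active means significant combined selectivity score with lowered wild-type GFP, culture density cut under 30%, mutant RFP and density less affected; inactive means any of these conditions unmet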; further: one replicate is shown; some compounds called inactive have numbers as strong as hits
Calb FLC = affects C. albicans growth with fluconazole; 300,000 compounds, 0.57% hits; C. albicans CaCi-2 (fluconazole-resistant clinical isolate) + fluconazole, Alamar Blue growth, 48 h; growth inhibition, % (no concentration beside the values);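 active means most replicates above 75%; inconclusive means exactly half above 75%; inactive means most below 75%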;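 further: all wells also contain fluconazole at 8 µg/ml as a sub-toxic cotreatment; 0% = median of DMSO wells and 100% = median of geldanamycin control wells; wells of about 8 µL received 7.5 nL stock; the first replicate is given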
T cruzi repl = blocks replication of Trypanosoma cruzi | 300,000 compounds, 1.4% hits | inhibition, % (concentration not given with the values) | AID 1885 | T. cruzi beta-gal in NIH3T3, luminescence, 90 h;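 active means mean inhibition across valid replicates above about 55%, limit read from the data; inconclusive means mean below that limit but half or more replicates reach it; inactive means mean below it, under half of replicates reach it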;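 further: signal also drops with host cell toxicity which is not excluded here; 0% = plate median of DMSO wells and 100% = zero luminescence signal; higher percent means less beta-gal luminescence so fewer parasites; stock transfer was 50 nL into about 50 µL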
Bfl-1 A1 inh = inhibitors of the anti-apoptotic protein A1, read as caspase activation; caspase activation, % (no concentration beside the values); MEF A1-2A-BIM cells, Caspase-Glo 3/7 luminescence, 3 h; percent of clofoctol response, vehicle zero; 330,000 compounds, 0.066% hits;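 active means over half of replicate activation scores above 10%, or exactly half above 10 with the replicate mean above 10; inconclusive means replicate mean below 10 yet half the replicates above 10; inactive means over half of replicates below 10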;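 further: wells of about 30 µL received 50 nL stock; many hits fall short of the cut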
Beta apoptosis = beta cell apoptosis inhibition; INS-1E cytokine-induced death, ATP luminescence, 48 h; percent of positive-control rescue, neutral wells zero; protection from apoptosis, % (concentration not given with the values); 300,000 compounds, 0.8% hits;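 active means all replicates at 75% or more, or half of them and the mean; inconclusive means half reach 75% but not the mean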;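 further: 0% = cytokine-treated negative control wells and 100% = positive control rescue; higher means more ATP so stronger rescue from cytokine killing; wells of about 40 µL received 100 nL stock; the first replicate is given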
ALR inh = inhibitors of human sulfhydryl oxidase ALR; inhibition, % (concentration not given with the values); purified ALR, DTT oxidation, H2O2 HRP-luminol luminescence; 290,000 compounds, 3.8% hits; P55789;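 active means mean and each replicate at 75% or more; inconclusive means only one of the two met; inactive means neither met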;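 further: stock transfer was 7.5 nL into about 7.5 µL; 0% = neutral wells and 100% = wells with inactivated enzyme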
rRNA inh HTS OD600 = further read-out of rRNA inh HTS, marked with its call; OD600 change, %; measured here: OD600 growth;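 optical density of the mix in the first replicate; 0 = DMSO median and -100 = no signal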
rRNA inh HTS RFP = further read-out of rRNA inh HTS, marked with its call; RFP signal change, %; measured here: RFP humanized mutant strains;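 first replicate; 0 = DMSO median and -100 = no signal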
An asterisk follows results filed as active; ? = inconclusive; . = not tested or not shown. An excerpt; count on the stated rates, not on these rows.

SMILES	LANA-H2A inh	B2AR ag	rRNA inh HTS	rRNA inh HTS OD600	rRNA inh HTS RFP	Calb FLC	T cruzi repl	Bfl-1 A1 inh	Beta apoptosis	ALR inh
COc1ccc2c(c1)cc(C(=O)N[C@@H](Cc1ccccc1)C(=O)O)n2C	3.9	6	5	3	0.7	1	-14	-0.3	-3	-1
CC(=O)Cn1ncc(N2CCOCC2)c(Cl)c1=O	1.4	0	27	16	7.0	2	-16	0.7	3	-2
CCCCCN1C(=O)/C(=C/c2c(N3CCc4ccccc4C3)nc3ccccn3c2=O)SC1=S	3.1	-732	11	4	7.8	0	36	-0.8	-2	-1
COc1ccc(-c2nc(C#N)c(NCC3CCCO3)o2)cc1OC (stereo not drawn)	-9.9	0	.	.	.	?	-2	-1.4	2	-1
CCc1cccc(NC(=S)N(CCOC)C2CCN(C(C)=O)CC2)c1	-1.0	-4	8	9	-0.7	-12	-7	0.5	2	-16
O=C(N[C@@H](Cc1ccccc1)C(=O)Nc1ccc(F)cc1)C1CCNCC1	8.4	-1	20	7	2.0	5	7	0.9	-4	-44
CCCCn1c(-c2ccoc2C)n[nH]c1=S	-2.3	-2	.	.	.	6	-29	-0.1	2	30
O=C(Nc1cccc(C(F)(F)F)c1)c1ccc(-n2cncn2)nc1	-2.9	4	.	.	.	?	0	-0.2	-1	-2
O=C(CCNC(=O)c1ccccc1Cl)NCc1ccco1	-2.2	-2	11	18	-0.1	.	.	0.0	-1	2
CC1CN(Cc2ccccn2)CCC1=O (stereo not drawn)	-1.3	-2	.	.	.	-1	8	0.6	-3	-26
Cc1ccccc1OCCNc1cc(N2CC(C)NC(C)C2)ccc1[N+](=O)[O-] (stereo not drawn)	7.6	21	-41	-76	-24	4	44	.	-4	-23
COc1ccc(C(=O)ON=C2CCN(C)CC2)cc1	6.1	-2	22	18	1.4	-3	-6	0.5	0	-4
Cc1cccc(NS(=O)(=O)c2ccc(C(=O)N3CCCCCC3)cc2)c1C	0.7	5	-15	-25	-2.5	8	8	0.6	9	.
C=CCc1cc(C(=O)N2CCCCC2)ccc1O	2.3	5	.	.	.	-1	-5	-0.2	-10	10
CCOCCCNCc1ccc(OCc2ccc(F)cc2)c(OC)c1	0.8	3	4	-5	0.0	-8	54	-0.4	0	-1
COc1ccc(OCc2nnc(SCC(N)=O)n2-c2ccccc2OC)cc1	-2.2	0	.	.	.	10	-9	-0.4	-2	-4
CCOC(=O)N1CCN(C(=O)c2sc3nc(-c4ccc(F)cc4)cn3c2C)CC1	-5.0	0	.	.	.	?	-2	-0.3	3	13
CC1=C(C#N)C(c2cccnc2)C2=C(CC(c3ccc(Cl)cc3)CC2=O)N1 (stereo not drawn)	0.9	-8	.	.	.	9	60*	-0.8	-2	-2
O=C(CCNC(=O)c1ccccc1Cl)Nc1ccc(Cl)c(C(F)(F)F)c1	-1.2	-11	.	.	.	17	8	0.2	3	-15
CN1CCN(C(=O)/C(=C/c2ccccc2F)NC(=O)c2ccccc2)CC1	0.5	6	0	4	-1.3	5	-8	-0.2	2	.
NC(=O)COC(=O)c1ccc(C(=O)C(=O)c2ccccc2)cc1	0.2	6	3	-3	2.2	-2	-14	-3.5	.	-4
CCc1n[nH]c(=S)n1/N=C/c1ccc(-c2ccc(Br)cc2)o1	0.7	-1	.	.	.	-3	-17	0.0	2	-4
CCN1CCN(C(=O)C(C)Oc2ccc(S(=O)(=O)N3CCCC3)cc2C(N)=O)CC1 (stereo not drawn)	-2.2	-4	23	16	0.4	.	.	0.5	5	-4
CCCOc1ccc(NC(=O)OC2CCN(C)CC2)cc1	.	-4	.	.	.	-9	55*	-0.5	-11	.
CCOc1ccc(NN=C(C(=O)OC)C(=O)OC)c([N+](=O)[O-])c1	-8.0	6	14	2	-1.4	-21	-15	0.7	-5	-23
CCc1ccc(NC(=O)CSc2ccc(-c3ccccn3)nn2)cc1	-1.5	-15	1	5	-1.2	11	?	-0.1	86*	-7
CC(=O)c1ccc(OCC(O)CN2CCN(CCO)CC2)cc1 (stereo not drawn)	4.1	2	2	5	1.8	3	-18	1.5	.	-35
Cc1ccc(CC(=O)Nc2ccc(S(=O)(=O)N3CCOCC3)cc2)cc1C	.	2	-1	-1	4.9	.	.	-0.8	0	-3
Clc1ccc(-c2nnc(-c3ccccc3)nc2-c2c[nH]c3ccccc23)cc1	8.1	-1	4	-7	-2.9	2	25	0.4	8	-31
CC(=O)N1C(C)(C)CC(=NOC(=O)c2ccccc2)CC1(C)C	-0.8	-4	5	6	4.9	8	12	-0.7	-6	9
Cc1cc(C(=O)Nc2ccc(Cl)cc2)c2ccccc2n1	-0.5	-1	24	3	0.0	-6	-5	-0.7	0	3
O=[N+]([O-])c1cc(Cl)cc(/C=N\Nc2ccccn2)c1O	11	6	.	.	.	-1	57*	-0.5	109*	.
CCn1cc(C(=O)O)c(=O)c2cc(F)c(N3CCN(C(=S)Nc4ccccc4OC)CC3)cc21	4.7	5	-55	-79	-24	-28	-23	-0.5	6	-21
CC1(NC(=O)NCc2ccco2)CCS(=O)(=O)C1 (stereo not drawn)	6.5	11	1	3	-0.6	23	-16	0.1	-1	-10
COc1ccc(OC)c(C(=O)NC(CC(N)=O)c2ccc(N3CCN(c4ccc(F)cc4)CC3)c([N+](=O)[O-])c2)c1 (stereo not drawn)	-0.6	6	8	15	-0.1	-7	13	0.6	-2	7
CCOc1ccc(NC(=O)CN(c2ccc(OC)c(OC)c2)S(=O)(=O)c2ccc(C)cc2)cc1	-9.3	0	16	20	2.6	-14	2	0.5	9	-39
CCC(NC(=O)Nc1nccs1)(C(F)(F)F)C(F)(F)F	3.4	0	.	.	.	-1	4	-0.9	-6	0
CCn1cc([C@@H]2C[C@H]3CN(Cc4cccc(Cl)c4)C(=O)[C@]34CCCN24)cn1	-0.6	-10	15	5	0.8	2	-4	-1.1	-4	-4
C=CC[C@H](CC(=O)N(CCO)Cc1ccccc1)C(=O)N[C@@H](C)COC(=O)[C@H](CC=C)CC(=O)OC(C)(C)C	-2.9	-3	3	6	-2.2	.	.	0.9	-4	-10
CN(C)CCN(C(=O)c1ccc(S(=O)(=O)N(C)c2ccccc2)cc1)c1nc2ccc(Cl)cc2s1	-3.5	0	3	0	3.0	-6	63*	0.3	2	-1
Cc1ccc2sc(N(CCCN(C)C)C(=O)c3ccc(S(=O)(=O)N(C)C4CCCCC4)cc3)nc2c1C	-0.6	29	-62	-78	-22	-11	59*	0.5	.	-6
COc1cc(/C=N/NC(=O)CSc2cc(C)c(Br)cc2C)ccc1O	-0.1	4	.	.	.	27	-7	0.6	0	49
COc1cc(/C=C2\C(=O)N(CCC#N)N=C2C)c(Br)cc1OC(C)C	-2.8	16	.	.	.	10	-11	3.0	-5	.
COCC(=O)Oc1c(Sc2ccccc2[N+](=O)[O-])c(C)nn1C(C)(C)C	-3.2	0	16	8	-0.9	-5	0	0.9	0	.
COc1ccc(NC(=O)C2C3C=CC4(O3)C2C(=O)N(CCN2CCCCC2C)C4C(=O)NC2CCCCC2)cc1 (stereo not drawn)	-3.7	8	1	7	-0.1	-9	13	0.1	-1	-16
COC(=O)C1C(=O)C2=C(CC1C)NC(C)=C(C(=O)OCc1ccc(OC)cc1)C2c1ccc(C)o1 (stereo not drawn)	1.1	5	.	.	.	?	0	0.4	-9	0
C[C@H](CO)N1C[C@H](C)[C@@H](CN(C)Cc2ccc(-c3ccccc3)cc2)Oc2c(NC(=O)Cc3ccccc3)cccc2C1=O	-5.1	4	10	17	0.5	.	.	0.1	11	4
COc1cccc(CN2CCC(n3nccc3NC(=O)CCCc3ccccc3)CC2)c1	-0.9	-1	-2	-8	1.2	-7	31	0.9	6	-13
CCOC(=O)N1CCN(C(=O)c2ccc(NS(C)(=O)=O)cc2)CC1	-4.9	-4	15	12	-7.3	1	-15	0.3	-1	-1
CNc1nc(-c2ccc([N+](=O)[O-])cc2)cs1	-0.5	-12	.	.	.	-2	-6	-1.9	-4	53
Cn1c(=O)oc2cc(S(=O)(=O)NCCC(=O)NC3CCCC3)ccc21	1.0	12	.	.	.	-2	-15	-0.2	-2	.
CCOC(=O)Nc1ccc([N+](=O)[O-])cc1OC	5.1	10	.	.	.	21	-8	-0.4	1	-19
CCNC(=S)N1CCN(CCNC2=CC(=O)CC(C)(C)C2)CC1	2.8	1	17	8	1.7	20	-1	-0.2	2	.
C=CCn1c(=NC(=O)C2COc3ccccc3O2)sc2cc(S(N)(=O)=O)ccc21 (stereo not drawn)	-2.4	-17	.	.	.	-7	-7	0.1	9	-1
O=C(CSc1nnc(-c2ccccc2Br)o1)N1CCc2ccccc2C1	4.7	2	.	.	.	5	0	0.1	-1	1
O=C(O)CCCn1cc(NC(=O)c2ccco2)cn1	-0.4	0	20	19	2.7	-2	-6	1.6	-8	-44
Cc1cccc(C)c1NC(=O)COC(=O)[C@@H]1CCCN1C(=O)c1cccs1	4.8	-5	-6	-17	-0.6	.	.	2.7	-7	6
CC(=O)c1cccc(NC(=O)c2cc(=O)[nH]c3ccccc23)c1	-3.6	-3	8	7	0.9	-4	-3	0.1	5	-9
CCOC(=O)c1nn(-c2cc(C(=O)OC)cc(C(=O)OC)c2)cc1O	-4.9	-6	8	14	-0.4	11	0	-0.4	-2	2
O=C(c1ccco1)N(Cc1cccc(Cl)c1)C1CCS(=O)(=O)C1 (stereo not drawn)	2.0	-2	5	17	-3.6	-6	0	-0.6	-10	-23
More results follow.
SMILES	LANA-H2A inh	B2AR ag	rRNA inh HTS	rRNA inh HTS OD600	rRNA inh HTS RFP	Calb FLC	T cruzi repl	Bfl-1 A1 inh	Beta apoptosis	ALR inh
O=C(O)c1nn(CCOc2ccc(Cl)cc2Cl)c(=O)c2ccccc12	3.2	3	2	2	-0.8	-11	2	-0.3	-6	2
Cc1nnc(NC(=O)C2CSC3(C)CCC(=O)N23)s1 (stereo not drawn)	1.9	-5	8	13	2.1	-1	-2	-0.1	1	-1
Cc1ccc(NC(=O)Cn2cccc2)c(Br)c1	2.1	-4	.	.	.	-14	-14	-0.6	-2	.
NC(=O)C1CCCN(CC(=O)Nc2cc(S(=O)(=O)N3CCOCC3)ccc2N2CCCC2)C1 (stereo not drawn)	4.3	2	8	2	1.1	.	.	0.7	1	-2
COc1ccccc1-n1c(-c2ccc(Cl)cc2)c[nH]c1=S	-4.1	4	-39	-51	-4.8	-17	30	0.6	-3	66
Oc1ccc(Nc2nnc(-c3ccc(O)cc3)c3ccccc23)cc1	1.2	1	-47	-80	-24	8	1	-0.6	7	-203

A portion from further up:
SMILES	LANA-H2A inh	B2AR ag	rRNA inh HTS	rRNA inh HTS OD600	rRNA inh HTS RFP	Calb FLC	T cruzi repl	Bfl-1 A1 inh	Beta apoptosis	ALR inh
O=C(O)c1nn(CCOc2ccc(Cl)cc2Cl)c(=O)c2ccccc12	3.2	3	2	2	-0.8	-11	2	-0.3	-6	2
Cc1nnc(NC(=O)C2CSC3(C)CCC(=O)N23)s1 (stereo not drawn)	1.9	-5	8	13	2.1	-1	-2	-0.1	1	-1
